High-throughput results (PubChem)
CSC inhib: blocks cancer stem cells; cancer stem cell-like cells viability, luminescence; inhibition, % at 7.5 µM; 300,000 compounds, 1.1% hits;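 active = mean at 75% or more and at least half the replicates too; inconclusive = mean and replicates disagree; tested in HMLE shEcad cells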;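 note: 0% = median of negative and 100% = median of positive control wells; the first replicate is given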
PABP polyA inh: PABP-poly(A) binding inhibition; PABP-poly(A) RNA binding, fluorescence polarization; 290,000 compounds, 1% hits; P11940; AID 2014; inhibition, % at 35 µM;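 active = 50% or more with normal probe brightness, or confirmed in later tests; inconclusive = above 50% with abnormal brightness, or retests that disagree; inactive = below 50% or failed in later tests; about a fifth of its hits are not listed in these tables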;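 note: calls also rest on retests at 20 µM and on dose response follow-up; controls were probe without protein and protein plus probe with vehicle; some compounds called inactive have numbers as strong as hits; many hits fall short of the cut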
Target sequence (P11940 whole entry, looked up): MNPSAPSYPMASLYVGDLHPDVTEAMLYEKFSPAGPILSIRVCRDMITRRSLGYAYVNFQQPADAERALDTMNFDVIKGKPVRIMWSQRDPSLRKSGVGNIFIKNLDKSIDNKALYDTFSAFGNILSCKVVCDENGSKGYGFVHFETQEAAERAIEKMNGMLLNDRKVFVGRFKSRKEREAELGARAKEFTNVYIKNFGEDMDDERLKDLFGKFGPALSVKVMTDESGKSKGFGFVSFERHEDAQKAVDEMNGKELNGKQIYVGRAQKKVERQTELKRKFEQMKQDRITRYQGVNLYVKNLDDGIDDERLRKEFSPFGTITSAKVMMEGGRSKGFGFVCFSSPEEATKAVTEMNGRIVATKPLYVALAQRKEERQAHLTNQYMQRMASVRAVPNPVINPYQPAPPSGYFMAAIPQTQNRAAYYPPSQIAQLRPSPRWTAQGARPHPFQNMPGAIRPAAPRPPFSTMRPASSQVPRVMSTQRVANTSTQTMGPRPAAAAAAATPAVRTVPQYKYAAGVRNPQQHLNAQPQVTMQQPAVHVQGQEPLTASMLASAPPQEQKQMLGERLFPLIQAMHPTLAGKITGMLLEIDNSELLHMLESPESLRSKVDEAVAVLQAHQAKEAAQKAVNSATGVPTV
eIF4H FP inh: inhibitors of RNA binding by human eIF4H | eIF4H fluorescence polarization binding assay | inhibition, % at 35 µM | 290,000 compounds, 0.94% hits | AID 2012;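 active = 50% or more with normal probe brightness, or confirmed in later tests; inconclusive = above 50% with abnormal brightness, or retests that disagree; inactive = below 50% or failed in later tests; about a fifth of its hits are not listed in these tables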;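 note: calls also rest on retests at 20 µM and on dose response follow-up; 0% = protein and probe with vehicle and 100% = probe without protein; strong numbers were not always called active; many hits fall short of the cut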
MT1-MMP act inh: blocks activation of human MT1-MMP; P50281; HT1080 RFP-PRO-GFP cells, GFP/RFP ratio fluorescence, overnight; percent of plate control window, DMSO zero; GFP/RFP ratio change, % at 20 µM; 360,000 compounds, 0.061% hits;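 active = GFP/RFP ratio change of at least 30% with cell ATP level not reduced by more than half and red fluorescence within 50% of control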; note: strong numbers were not always called active
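Assay system – RFP-PRO-GFP reporter HT1080 cells · Compound dosing – single dose of 20 µM compound, 1% DMSO final · Incubation – overnight compound exposure at 37 °C · Measure – GFP/RFP fluorescence ratio · Benchmarks – DMSO wells and RFP-L50D-GFP cells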
HIV Env fusion: inhibitors of HIV Env-mediated cell fusion; HeLa-JRFL Env/CEM21 cell fusion, luciferase; inhibition, % at 12.3 µM; 360,000 compounds, 1.1% hits;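 active = mean replicate inhibition score of at least 50 and every replicate individually at or above 50; inconclusive = only one of the two criteria met; inactive = mean below 50 and not all replicates reaching 50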;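 note: 0% = plate neutral controls and 100% = maraviroc near 300 nM; one replicate is shown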
Rce1 inhib: blocks yeast Ras-converting enzyme | yeast membranes, quenched prenylated peptide cleavage fluorescence | calls only | 290,000 compounds, 0.27% hits | AID 2563;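 active = fall in fluorescence gain of 50% or more versus controls, with final raw signal at or below 3038400; inconclusive = same 50% fall but final raw signal above 3038400; inactive = fall in fluorescence gain under 50%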;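 note: plate controls were neutral control wells for no effect and wells lacking membranes for full effect; tested at 10 µM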
Yeast UUG start: yeast start codon fidelity modulation | S. cerevisiae UUG-firefly luciferase reporter, luminescence/redox ratio | 350,000 compounds, 0.13% hits | AID 602363 | activity score, % at 18.7 µM;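 active = replicate mean at a twofold rise or more, about +100% in these data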;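 note: firefly luciferase made from a UUG start codon reports start codon fidelity; reporter light over untreated wells divided by growth signal over untreated wells; some hits fall short of that in this replicate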
MT1-MMP act inh RFP: further read-out of MT1-MMP act inh, marked with its call; RFP signal change, %; measured here: RFP expression control read;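 0 = vehicle wells; hits needed this value within 50% of zero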
Active calls of the source: *; i = inactive; u = inconclusive; x = no result given; + = active, no number; & = joins results of further samples. An excerpt. The share of hits here may be higher or lower than overall.

SMILES | CSC inhib | PABP polyA inh | eIF4H FP inh | MT1-MMP act inh | MT1-MMP act inh RFP | HIV Env fusion | Rce1 inhib | Yeast UUG start
Cc1cc(C(C)(C)C)oc1C(=O)N(CC(=O)NC1CCCC1)Cc1ccccc1Cl | 35.9 | -15.8 | -8.6 | -17.6 | -14.9 | x | i | x
CC1CCN(C(=O)CSc2nc3c(cnn3-c3ccccc3)c(=O)[nH]2)CC1 | 0.6 | 3.3 | -13.2 | -5.8 | 0.0 | 14.3 | i | -20.5
COc1ccc(S(=O)(=O)Cc2ccc(C(=O)NCc3ccccn3)o2)cc1 | -5.6 | -3.0 | 30.2 | 3.3 | 1.3 | 16.3 | i | -8.8
OCCc1ccc(-c2ccc(Cl)cc2)o1 | 1.8 | -11.6 | -8.1 | -2.6 | -1.1 | -155.4 | i | -17.7
C/C(=N\NC(=O)Cn1c(C)nc2ccccc21)c1cccs1 | 5.6 | 4.4 | -11.9 | -0.7 | -18.9 | x | i | 3.5
CCOC(=O)N1CCN(CCC(=O)Nc2ccccc2)CC1 | -19.1 | -3.8 | -0.4 | -1.3 | 0.9 | 30.7 | i | -17.4
O=C(CCC(=O)c1ccccc1)Nc1cccnc1 | 1.8 | 1.2 | -0.8 | -2.7 | 2.8 | x | i | -16.8
O=C(CN1CCOCC1)Nc1c(Cl)cc(Cl)cc1Cl | 4.8 | -0.9 | -5.6 | 0.7 | 3.5 | 17.6 | i | x
CCCCC(=O)Nc1c2c(nn1-c1cccc(C)c1C)CS(=O)(=O)C2 | -26.7 | -4.2 | 2.0 | 0.9 | 7.7 | 7.9 | i | -3.9
Cc1cc(CNC(=O)COC(=O)C2CC3CCCC(C2)C3=O)cc(C)c1O (stereo unspecified) | -4.2 | x | x | -4.5 | 2.5 | 8.4 | x | -5.3
CCc1cccc(C)c1NC(=S)NCC1CCN(c2ccc(OC)cc2)C1 (stereo unspecified) | 17.9 | -9.3 | -7.4 | -9.4 | -8.6 | -129.9 | i | -24.9
COc1ccc(Br)cc1CN(C)C(=O)c1ccc2c(c1)NC(=O)C(C)S2 (stereo unspecified) | -4.7 | -9.4 | 0.9 | -0.3 | 1.9 | -5.0 | i | x
O=C(NNC(=O)c1ccc([N+](=O)[O-])o1)c1ccccc1 | -7.7 | 2.1 | 5.6 | 5.1 | -10.9 | x | i | x
Cc1cc(C)c2nc(N3CCCN(C(=O)c4ccco4)CC3)c(C#N)cc2c1 | -2.3 | 2.9 | -0.7 | -25.0 | 5.0 | 32.6 | i | -7.5
COc1ccc(Cl)cc1C(=O)Nn1c(C)nc2ccccc2c1=O | -2.6 | -1.6 | -3.3 | 5.2 | 1.2 | 2.3 | i | -13.3
Cc1cc(=O)[nH]c(N2CCCNCC2)n1 | 45.7 | -0.2 | -3.5 | -1.1 | -2.7 | x | i | -5.7
O=C(CCl)NN=C(c1ccccc1)c1ccccc1 | -7.6 | 17.8 | 5.6 | 0.5 | 3.3 | 12.4 | i | -7.6
O=S(=O)(c1cccc(C(F)(F)F)c1)N1CCN(c2ccccc2)CC1 | 6.0 | -0.7 | 6.0 | 0.3 | 0.8 | 2.4 | i | -10.6
O=C(Nc1cccc(OC(F)(F)F)c1)c1ccc(-c2cccnc2)c2ccoc12 | x | x | x | 0.0 | -5.8 | -14.8 | x | -10.5
Nc1nc2ccc(Br)cc2s1 | x | x | x | -3.5 | 2.0 | -48.1 | x | -19.5
CC(C)CC1(C)NC(=O)NC1=O (stereo unspecified) | -2.5 | -5.2 | -5.2 | 2.2 | 0.0 | x | i | -8.6
Cc1c(/C(O)=C2/C(=O)C(=O)N(CCN(C)C)C2c2ccc(C(C)C)cc2)cnn1-c1ccccc1 (stereo unspecified) | -11.0 | -14.0 | -0.7 | -0.1 | 2.6 | -59.1 | i | 1.0
COc1ccc(/C=c2/sc3nc(-c4ccccc4)c(-c4ccccc4)n3c2=O)cc1 | 6.1 | 8.1 | -2.9 | 0.7 | 3.5 | 6.6 | i | x
Cc1ccc(C(=O)/C=C/c2ccc(-c3ccc(C)cc3)o2)cc1 | 55.0 | -13.7 | 12.3 | -18.8 | 4.7 | -15.5 | i | x
Cc1ccc(NC(=O)COC(=O)C2CC2(Cl)Cl)cc1C (stereo unspecified) | 4.3 | 30.9 | -10.4 | -0.2 | -2.5 | 5.8 | i | -4.8
Next structures
SMILES | CSC inhib | PABP polyA inh | eIF4H FP inh | MT1-MMP act inh | MT1-MMP act inh RFP | HIV Env fusion | Rce1 inhib | Yeast UUG start
C[C@@H](CN1C(=O)C(=O)NC[C@@H]1C)NC(=O)CC12CC3CC(CC(C3)C1)C2 | -7.0 | -1.0 | -6.8 | 0.4 | 2.8 | 33.3 | i | -11.6
O=C(COc1ccc(S(=O)(=O)NCc2ccccc2)cc1Cl)NCc1ccccn1 | x | -5.8 | -7.6 | 0.7 | 0.5 | 6.4 | i | x
COc1cc(NC(=O)c2cc(C)on2)cc(C(=O)Nc2cccc(C(F)(F)F)c2)c1 | 87.7* | -5.7 | -7.5 | 4.7&5.1 | -2.1&-3.3 | 13.3 | i | -11.9&-11.2
Cc1cnc(C(=O)OCC(=O)NCc2ccc(Cl)cc2)cn1 | 7.0 | x | x | 4.1 | 2.3 | -10.1 | x | -4.1
O=C(c1cc(COc2c(F)cccc2F)on1)N1CC[C@@H]2CCCC[C@H]2C1 | x | x | x | 3.0 | 6.4 | u | x | 1.9
CCOC(=O)/C(=N/Nc1ccc(OC)cc1)N1CCCc2ccccc21 | 75.4* | -6.0 | 2.5 | -19.2 | -26.4 | -0.4 | i | -9.7
COCCc1ncc(CN2CCC(C(=O)Nc3cccc(-c4cscn4)c3)CC2)cn1 | 0.6 | -0.4 | 7.7 | -3.5 | -16.2 | 8.9 | i | -27.4
CC1CCCCN1C(=O)CSc1nc2ccccc2[nH]1 (stereo unspecified) | 8.9 | -8.2 | 2.5 | -0.8 | 2.5 | 12.1 | i | x
CCOC(=O)c1cnn(-c2cc(C)nc3c(-c4ccccc4)cnn23)c1N | -15.9 | -9.9 | -1.9 | 0.5 | 1.9 | x | i | -23.0
O=C(CSc1ccccn1)Nc1cccc(NC(=O)CSc2ccccn2)n1 | -7.1 | -6.8 | -12.4 | 0.5 | -1.1 | x | i | -22.7
O=C(N/N=C\c1ccoc1)c1ccco1 | x | 0.8 | -3.5 | 0.7 | 2.2 | -2.0 | i | -14.2
O=[N+]([O-])c1cccc(C(=Nc2ccccc2)NO)c1 | 2.9 | 48.6 | -5.2 | -1.8 | -0.8 | 28.2 | i | -16.2
O=C(Nc1cccc2cccnc12)c1ccccc1Br | -2.1 | x | x | 1.1 | 0.5 | -3.3 | i | x
Cc1ccc([C@@H]2C[C@H]3[C@@H](CN2S(=O)(=O)c2ccc(Cl)cc2)C(=O)C[C@@H](c2cccc(Cl)c2)N3S(=O)(=O)c2ccc(C)cc2)cc1 | x | x | x | -1.0 | -6.5 | -13.9 | x | -2.9
Cc1ccc(S(=O)(=O)NCC(=O)N(CC(=O)NCc2ccco2)Cc2ccc(F)cc2)cc1 | x | -2.4 | -1.0 | 1.6 | 4.5 | -0.5 | i | -6.2
CS(=O)(=O)c1ccc2nc(NC(=O)CN3CCC(Cc4ccccc4)CC3)sc2c1 | -4.7 | 5.7 | 2.8 | -0.7 | -0.6 | -7.9 | i | -0.6
Cc1occc1C(=O)Nc1ccc(S(=O)(=O)N2CCN(C)CC2)cc1 | -4.7 | -4.3 | -8.9 | 2.3 | -0.4 | -4.7 | i | 5.1
COc1ccc(/C=N/N2CCN(c3ccc(Cl)cc3)CC2)cc1O | 27.8 | 6.5 | -1.5 | 10.7 | -2.4 | -97.3 | i | -13.9
Nc1nonc1-n1nnc(C(=O)N/N=C/c2ccoc2)c1CSc1ccccc1 | -7.2 | 8.2 | -0.4 | 4.4 | 5.8 | x | + | -35.4
Cc1ccc(S(=O)(=O)N(C)C)cc1NC(=O)COC(=O)/C=C/c1cnc2ccccc2n1 | 5.7 | 2.4 | 11.2 | -1.4 | 3.4 | -4.3 | i | -15.2
O=C(Nc1ccc(F)c(Cl)c1)C1Cc2c(-c3cccc(F)c3)ccnc2O1 (stereo unspecified) | x | x | x | 7.6 | -18.0 | 18.9 | x | 23.2
CCN(CC)c1ccc2cc(C(=O)c3cccs3)c(=O)oc2c1 | x | x | x | -22.7 | 3.4 | -198.5 | x | 0.1
CC(=O)c1c(C)nn(C(C)CC(=O)O)c1C (stereo unspecified) | -7.6 | -0.5 | 7.3 | 9.2 | 8.3 | x | i | -6.8
C/C(=N\NC(=O)c1ccc2c(c1)OCO2)c1ccc(NC(=O)CCCC(=O)O)cc1 | -12.6 | -12.9 | 3.5 | -2.6 | 0.0 | -8.7 | i | 1.0
CCCNC(=S)Nc1ccc(Br)cc1 | 9.3 | -13.2 | -3.4 | 0.8 | -4.1 | x | i | -33.8

Among those listed so far, these contain a nitro group on carbon.
SMILES | CSC inhib | PABP polyA inh | eIF4H FP inh | MT1-MMP act inh | MT1-MMP act inh RFP | HIV Env fusion | Rce1 inhib | Yeast UUG start
O=C(NNC(=O)c1ccc([N+](=O)[O-])o1)c1ccccc1 | -7.7 | 2.1 | 5.6 | 5.1 | -10.9 | x | i | x
O=[N+]([O-])c1cccc(C(=Nc2ccccc2)NO)c1 | 2.9 | 48.6 | -5.2 | -1.8 | -0.8 | 28.2 | i | -16.2

Carrying on.
SMILES | CSC inhib | PABP polyA inh | eIF4H FP inh | MT1-MMP act inh | MT1-MMP act inh RFP | HIV Env fusion | Rce1 inhib | Yeast UUG start
COc1ccccc1C/C(N)=N/OC(=O)/C=C/c1ccccc1 | -22.7 | u | 0.7 | 0.2 | 1.5 | -27.2 | i | -22.6
O=C(CC1Sc2ccccc2NC1=O)Nc1ccccc1[N+](=O)[O-] (stereo unspecified) | 9.5 | 6.5 | -5.8 | -1.1 | -3.5 | 7.8 | i | x
COc1ccc(C2C(C(=O)N3CCN(c4ccc(OC)cc4)CC3)c3ccccc3C(=O)N2C)cc1 (stereo unspecified) | -9.0 | 3.9 | -2.6 | -1.1 | -2.5 | -33.8 | i | -15.4
Cc1cc(C)c(C#N)c(SCC(=O)c2cccs2)n1 | 4.5 | -3.4 | -10.6 | -1.0 | -1.0 | -169.6 | i | -4.0
c1ccc(CCNc2nc(-c3ccccn3)cs2)cc1 | 26.3 | 15.4 | 4.3 | 5.8 | 8.4 | -26.9 | i | x
Cc1cc2oc(C(=O)Nc3c(C)n(C)n(-c4ccccc4)c3=O)c(C)c2cc1C | -7.6 | -16.0 | 4.9 | 23.1 | -0.6 | x | i | -0.3
O=C(N/N=C/c1ccc2c(c1)OCO2)c1ccc(NC(=O)c2ccccc2Cl)cc1 | 71.2 | 2.5 | -6.7 | -1.7 | -1.3 | 11.7 | i | -3.8
O=C(c1ccco1)N1CCCC(N2CCN(c3cccc(C(F)(F)F)c3)CC2)C1 (stereo unspecified) | -0.2 | -3.2 | -2.5 | 1.1 | -4.0 | -6.6 | i | -7.0
COc1ccc(C)cc1S(=O)(=O)N(CC(=O)Nc1cccc([N+](=O)[O-])c1)c1ccc(C)c(C)c1 | 3.7 | 2.5 | -7.1 | 0.5 | 0.8 | x | i | -27.8
CCCCCN1CC(=O)N2C(C)c3[nH]c4ccccc4c3C[C@H]2C1=O (stereo partly specified) | -13.8 | -9.3 | 0.0 | 1.8 | -6.4 | -9.3 | i | 3.6
NS(=O)(=O)c1ccc(N=C2C(=O)Nc3ccccc32)cc1 | -0.3 | 1.4 | -5.4 | 1.0 | 5.4 | 5.7 | i | -13.9
CC(=O)Nc1ccc(NC(=O)C(C)Oc2ccc(Cl)cc2Cl)cc1 (stereo unspecified) | -16.3 | 10.8 | 3.0 | 0.0 | -0.7 | 15.6 | i | x
